MgrA DNA FP – alters Staphylococcus aureus MgrA binding to DNA; 0.13% of 84,000 active; inhibition, %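 (about 10 µg/mL by stock and volumes)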; fluorescence polarization;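 active = above 50% in either of two replicates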;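 note: 0% = protein plus DNA without compound and 100% = DNA alone without protein; higher means less MgrA bound to DNA so lower polarization; one replicate is shown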
Sa helicase inh – S. aureus DNA helicase inhibition | purified S. aureus helicase, fluorescence unwinding assay; about half of the hits fall short of the stated cut | inhibition, %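 (tested at about 80 µM)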 | 0.05% of 120,000 active;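 active = both duplicates at 50% or more, or one of them with a favoured structure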;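 note: 0% = mean of negative control wells and 100% = mean of positive control wells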
* = called active by the depositor; . = no result given. A portion of the library, so the mix of outcomes need not match the whole.

Screens in order – MgrA DNA FP, Sa helicase inh
Nc1nnc(SCC(=O)Nc2ccccc2N2CCOCC2)s1
→ 1.8, -13
Cc1cc(NC2CCCCC2)nc2ccc(N)cc12
→ -1.4, -2
c1cc(-c2nnc3n2CCC3)ccn1
→ ., 10
CC(C)(C)Sc1nc2ccccc2[nH]c1=S
→ 2.0, .
CCOC(=O)CN1CC23C=CC(O2)C(C(=O)Nc2ccc(C(C)C)cc2)C3C1=O (stereo unspecified)
→ ., -31
CC(=O)C1C(=O)C=C(/C=C/c2ccccc2)CC1c1ccccc1 (stereo unspecified)
→ 0.1, .
CCOC(=O)C1=C(C(F)(F)F)Nc2ncnn2C1c1ccc(F)cc1 (stereo unspecified)
→ 0.8, -15
CCCNC(=O)c1ccccc1NC(=O)c1ccccc1NS(C)(=O)=O
→ 0.5, -1
Cn1nnc2cc(C(=O)Nc3cccnc3)ccc21
→ -1.8, 8
CCOC(=O)N1CCC(NC(=O)c2cccc3c2C(=O)N(CCOC)C3)CC1
→ ., 14
CCN(CC)S(=O)(=O)c1cccc(-c2n[nH]c(=S)n2-c2ccccc2)c1
→ ., -14
Clc1ccccc1CSc1nnnn1-c1ccccc1
→ ., 22
CC1CCCC(NC(=O)CCCn2ncn3c(cc4occc43)c2=O)C1C (stereo unspecified)
→ ., -16
CC(C)/C=C1\CCCCC1N(C)C(=O)NC(C)C (stereo unspecified)
→ ., 30
COc1ccc(S(=O)(=O)N2CCCC2C(=O)Nc2nc3c(s2)CCCC3)cc1 (stereo unspecified)
→ -1.1, 6
CC(=O)N1CCc2cc(S(=O)(=O)CCC(=O)N(C)c3ccc(Br)cc3)ccc21
→ ., 5
Cc1cccc(N=Cc2c(O)n(-c3ccccc3)c(=O)c3ccccc23)c1
→ 1.7, 2
CC(=O)n1ccc2ccccc21
→ ., -3
COC(=O)c1cccc(NC(=O)CCCN2C(=O)c3ccccc3C2=O)c1
→ ., 9
CSc1nc2ccc(NC(=O)c3ccc(S(=O)(=O)N4CCOCC4)cc3)cc2s1
→ -0.8, .
COC(=O)c1cc(N2CCCCC2)ccc1NCc1cc2ccc(OC)cc2[nH]c1=O
→ ., -17
COc1cc(C2CC(=O)NC(SCC(=O)Nc3nccs3)=C2C#N)cc(OC)c1OC (stereo unspecified)
→ ., 20
COc1ccccc1C1CCN(CCCOc2ccc(Cl)cc2)CC1
→ 0.0, .
COc1cc([N+](=O)[O-])ccc1-c1ccc(/C=C2/C(C)=C(C#N)c3nc(N)c(C#N)c(C)c32)o1
→ -0.3, .
O=S(=O)(c1cc(Cl)ccc1Cl)N(Cc1ccco1)C(F)F
→ ., -16
COc1ccc(-c2cc(=O)c3ccccc3s2)cc1
→ ., 7
Nc1cc(-c2ccc(Cl)cc2)nn1S(=O)(=O)c1ccc(F)c(F)c1
→ 0.6, .
CCc1ccc(Nc2nc(-c3ccccc3)cc(=O)[nH]2)cc1
→ ., -24
COc1ccc(NC(=O)CSCc2ccc(C)cc2)cc1
→ -2.1, 23
Cc1ccc(NC(=S)Nc2ccc(C)c(C)c2)cc1C
→ 2.2, .
CCn1c(SC(C)C(=O)NC(N)=O)nc2ccccc21 (stereo unspecified)
→ ., 11
CC(Nc1ccc(Br)cn1)c1cc(Cl)ccc1O (stereo unspecified)
→ -2.2, 7
CCOC(=O)c1cnc2ccc(OCC)cc2c1NCc1ccccc1
→ 0.1, 1
Cc1nnc(NC(=O)c2ccc3c(c2)SC2=NS(=O)(=O)CCN23)s1
→ ., -8
CCOc1ccc(N(CC)C(=O)COc2cc(=O)n(C)c3ccccc23)cc1
→ ., 20
CC(C)N(C(=O)CSc1nnc(-c2ccccc2)o1)c1ccccc1
→ ., -16
Cc1cccc(C(=O)OC(C)CN2CCCC2)c1 (stereo unspecified)
→ ., -6
O=C1CCN(C(=O)c2ccc(-c3nc4ccccc4s3)s2)CC1
→ ., -13
CCOc1ccc(-c2cc(C)n3nc(C(=O)Nc4ccc(Br)cc4)cc3n2)cc1
→ -1.2, .
CC12CCC(=O)N1c1ccccc1C(=O)N2c1ccc(F)cc1 (stereo unspecified)
→ ., -7
O=C(NC1CCCC1)C(c1ccc(Cl)cc1)N1CCCCC1 (stereo unspecified)
→ ., -18
CC(C)CC1(C)N=C(c2ccccc2)C(=S)N1 (stereo unspecified)
→ -0.9, 6
O=[N+]([O-])c1cc(C(F)(F)F)ccc1-n1ccc(-c2cccs2)n1
→ 0.6, .
CC(C)c1ccc(C(=O)CCN(C)C)cc1
→ 3.0, 10
CCc1nc2ccccc2c(NC(=O)CN(CC)CC)c1C
→ 1.7, -7
O=C(CCCc1nc2ccccc2c(=O)[nH]1)Nc1ccc(F)c(Cl)c1
→ ., 0
O=C(Cc1ccccc1)c1cc2c(cc1Br)OCCO2
→ -2.7, .
COc1ccccc1N=C(N)SCc1ccccc1
→ 1.1, .
NS(=O)(=O)c1ccc(N2N=C(c3ccccc3)CC2c2ccccc2)cc1 (stereo unspecified)
→ 2.2, .
O=C(c1cccc2c1NC(c1cccc([N+](=O)[O-])c1)C1CC=CC21)N1CCCC1 (stereo unspecified)
→ 6.2, .
CN(C)S(=O)(=O)N=C1C=CC(=NS(=O)(=O)N(C)C)C=C1
→ ., 33
COc1ccc(OCCNC(=O)c2ccco2)cc1
→ -1.8, .
CC(=O)Nc1cccc(C(=O)Oc2cccc(C)c2)c1O
→ 3.8, -14
CCCc1cc(-c2ccc(O)c(OCC)c2)c(C#N)c(N)n1
→ -0.8, 9
CCC(C)(C)NC(=O)c1cccc(S(=O)(=O)N2CCN(c3ccc(F)cc3)CC2)c1
→ ., -3
Cn1ccc(C(=O)OCC(=O)Nc2ccc(S(N)(=O)=O)cc2)n1
→ -5.6, 5
O=C(CN1C(=O)COc2ccccc21)NCc1ccccn1
→ 0.9, 10
CNC(=O)c1cccc2cccc(Sc3ccccc3C(=O)O)c12
→ -9.2, .
CCOC(=O)c1oc2ccccc2c1COC(=O)c1cccc(-n2cnnn2)c1
→ ., -7
O=C1CCC(c2ccccc2)=NN1c1ccc([N+](=O)[O-])cc1
→ 0.6, .

(more compounds)
Screens in order – MgrA DNA FP, Sa helicase inh
CC(N=C1SCCN1C(=O)/C=C/c1ccco1)c1ccccc1 (stereo unspecified)
→ ., -7
O=C(CCC1CCCC1)NCc1ccccn1
→ 1.1, 11
Cc1cc(=O)oc2cc(OC(=O)/C=C/c3ccccc3)ccc12
→ -2.4, -5
Cc1ccc(OCc2nnc(SCC(=O)N(C)Cc3ccc(Cl)s3)n2N)c(C)c1
→ ., 6
O=S(=O)(NC(=S)Nc1ccc(Cl)cc1)c1ccc(-n2nc(C(F)(F)F)cc2-c2cccs2)cc1
→ 14, .
Cc1cc(C)nc(N/C=C(\C#N)C(=O)c2ccoc2C)n1
→ ., 7
COc1ccc(C(=O)c2c(C(F)(F)F)oc3c2C(=O)c2ccccc2C3=O)cc1OC
→ 0.8, 4
COc1ccc(COCC(O)CN2CCCCC2)cc1OC (stereo unspecified)
→ ., 1
CN1C(=O)C(C)(C)c2cc(S(=O)(=O)N3CCCC3C(=O)NCc3ccc(F)cc3)ccc21 (stereo unspecified)
→ -0.6, 4
Cc1ccc(-c2nc3ccccc3o2)cc1NC(=O)c1ccc2c(c1)OCO2
→ 0.0, 11
N#CCOc1ccc2c(=O)cc(-c3ccccc3)oc2c1
→ -1.6, .
Cc1oc2cc(O)ccc2c(=O)c1Oc1ccc(Cl)cc1
→ 0.7, .
Cc1onc(-c2c(Cl)cccc2Cl)c1C(=O)N=C(N)N1CCCC1
→ 0.2, .
CC(NC(=O)C1CCCC1)c1ccccc1 (stereo unspecified)
→ 0.6, 1
O=C(O)c1ccccc1OCCOc1ccccc1
→ -0.9, 4

3 entries already listed, sorted by the value under Sa helicase inh, lowest first:
| Structure | MgrA DNA FP | Sa helicase inh |
| --- | --- | --- |
| CC(N=C1SCCN1C(=O)/C=C/c1ccco1)c1ccccc1 (stereo unspecified) | . | -7 |
| CC(NC(=O)C1CCCC1)c1ccccc1 (stereo unspecified) | 0.6 | 1 |
| CN1C(=O)C(C)(C)c2cc(S(=O)(=O)N3CCCC3C(=O)NCc3ccc(F)cc3)ccc21 (stereo unspecified) | -0.6 | 4 |

(cont.)
Screens in order – MgrA DNA FP, Sa helicase inh
Cc1ccc2cc(C#N)c(SCC(=O)Nc3ccccc3)nc2c1
→ -0.8, 7
COC(=O)c1cn(Cc2cc(OC)ccc2OC)cc(F)c1=O
→ ., -17
O=c1cc(NCc2ccccc2)nc2ccccn12
→ ., 6
Nc1ccc(N2CCCCC2)cc1N1CCCCC1
→ 24, 10
O=C(NCCCO)c1ccc(CSc2nc3ccccc3c(=O)[nH]2)cc1
→ 4.6, -7
O=C1c2ccccc2S(=O)(=O)N1CC(O)Cn1c2ccc(Br)cc2c2cc(Br)ccc21 (stereo unspecified)
→ 1.4, .
O=C(COC(=O)c1cc(=O)[nH]c2ccccc12)NCc1ccco1
→ ., 1
Cc1ccc2nc(C(F)(F)F)cc(N3CCN(/C=C(/C#N)S(=O)(=O)c4ccccn4)CC3)c2c1
→ -1.4, .
COc1ccc(OC)c2c(C)cc(Cl)nc12
→ -4.2, 2
CNC(=O)Nc1c[nH]c2cc(Cl)ccc2c1=O
→ -1.7, 9
O=C(O)C1C2C=CC(C2)C1C(=O)NCCCn1ccnc1 (stereo unspecified)
→ ., 4
Cc1nc2ccccn2c(=O)c1Cl
→ 3.5, .
O=C(CC(SCc1ccco1)c1ccc(O)cc1)c1ccco1 (stereo unspecified)
→ ., -8
COC(=O)C1=C(C)Nc2ncnn2C1/C=C/c1ccccc1 (stereo unspecified)
→ ., 6
Cc1nn(Cc2ccc(C(=O)Sc3ccc(C(F)(F)F)cn3)o2)c(C)c1Br
→ 4.8, .
O=C(O)CCc1nn2c3ccccc3nc2n(-c2ccccc2)c1=O
→ ., 4
CC1CC(C)CN(S(=O)(=O)c2ccc(NC(=O)CNC(=O)c3ccco3)cc2)C1 (stereo unspecified)
→ ., -8
O=C(O)C12CC3CC(C1)CC(n1ncc(NCc4ccc5c(c4)OCO5)c(Cl)c1=O)(C3)C2
→ ., 15
CC1=C(C(=O)Nc2ccc(C)cc2)C(c2ccc(C)o2)C2=C(CC(C)(C)CC2=O)N1 (stereo unspecified)
→ 0.5, 15
Oc1ccc(N=Cc2ccc(F)c(F)c2)cc1N=Cc1ccc(F)c(F)c1
→ 5.6, -20
CC1(C)CC(=O)C=C(Sc2ccc(C#N)cc2[N+](=O)[O-])S1
→ -0.2, .
COC(=O)C(Cc1ccccc1)NC(=O)c1n[nH]c(=O)c2ccccc12 (stereo unspecified)
→ ., 4
CCC(CC)C(=O)N1CC(=O)Nc2ccc(F)cc2C1c1ccccc1 (stereo unspecified)
→ ., -33
NC(=O)c1ncccc1C(=O)O
→ 2.0, .
CCCNC(=O)C1CCN(c2nc3ccccc3n2Cc2ccccc2F)CC1
→ ., 8
FC(F)(F)c1cccc(N2CCN(CCN3CCOCC3)CC2)c1
→ -7.7, 9
N#CC1=C(CBr)NC(CBr)=C(C#N)C12CCCCC2
→ -2.3, 48*
Cc1ccc(Oc2cc(C)nc(-c3ccccc3O)n2)cc1
→ 0.7, -21
CCN(CC)S(=O)(=O)c1cccc(C(=O)NC(C)C(c2cccs2)N2CCCC2)c1 (stereo unspecified)
→ ., 1
COc1cc2c(cc1OC)C1CN3CCc4cc(OC)c(OC)cc4C3CN1CC2 (stereo unspecified)
→ -0.8, 10
COc1ccc(CNC(=O)c2ccc(CNC(N)=O)cc2)cc1
→ ., -18
Cc1nc2c(c(C)nn2C(C)(C)C)c(C)c1CCC(=O)O
→ ., 6
N#C/C(=C/c1cn(-c2ccccc2)nc1-c1cc2ccccc2o1)S(=O)(=O)c1ccc(Cl)cc1
→ ., -29
O=C(NCc1ccccc1)c1ccc2nc3ccccc3c(=O)n2c1
→ 0.8, 5
COC(=O)c1c(NC(=O)c2ccc(C)cc2)sc(C)c1C
→ 2.5, -11
CCOC(=O)c1coc2c(F)c(F)c(F)cc2c1=O
→ ., 13
O=C(Nc1cccc(-c2csnn2)c1)c1cccs1
→ -0.6, 5
C=CCn1c(N)c(C(=O)OCC)sc1=S
→ 2.5, .
O=C(Nc1ccccc1N1CCN(c2ccccc2)CC1)c1ccccc1
→ 20, -23
Nc1sc2c(c1C(=O)NCCc1ccccc1)CCC2
→ ., 17
O=C(CCN1Cc2ccccc2C1)c1ccc2c(c1)OCCO2
→ 4.4, -5
O=C(CCCN1C(=O)c2cccnc2C1=O)Nc1ccc(C(F)(F)F)cc1
→ -1.9, 2
O=C(NCc1nc2ccccc2[nH]1)c1ccc(S(=O)(=O)N2CCCC2)cc1
→ ., 3
O=C(Cc1ccc(CC(=O)c2ccccc2)cc1)c1ccccc1
→ -2.5, .
O=C1CC(Cc2ccccc2)C(=O)N1c1cccc(C(F)(F)F)c1 (stereo unspecified)
→ -2.9, 0

6 structures from above, sorted by length of the SMILES, falling.
Screens in order – MgrA DNA FP, Sa helicase inh
N#C/C(=C/c1cn(-c2ccccc2)nc1-c1cc2ccccc2o1)S(=O)(=O)c1ccc(Cl)cc1
→ ., -29
O=C(NCc1nc2ccccc2[nH]1)c1ccc(S(=O)(=O)N2CCCC2)cc1
→ ., 3
O=C(Nc1ccccc1N1CCN(c2ccccc2)CC1)c1ccccc1
→ 20, -23
Cc1nc2c(c(C)nn2C(C)(C)C)c(C)c1CCC(=O)O
→ ., 6
O=C(CCN1Cc2ccccc2C1)c1ccc2c(c1)OCCO2
→ 4.4, -5
C=CCn1c(N)c(C(=O)OCC)sc1=S
→ 2.5, .

(further entries)
Screens in order – MgrA DNA FP, Sa helicase inh
Cn1cc(S(=O)(=O)NCC2CCCO2)c(=O)n(C)c1=O (stereo unspecified)
→ ., 5
CCOC(=O)c1c(NC(C)=O)sc2c(OCC(O)CNC(C)(C)C)c(Br)ccc12 (stereo unspecified)
→ ., 14
CC(C)N(C(C)C)S(=O)(=O)c1ccc(NCCc2ccc(S(N)(=O)=O)cc2)nc1
→ ., -6
CCC(CC)c1nnc(NC(=O)Cc2csc(C)n2)s1
→ ., 16
Cc1ccc(S(=O)(=O)C2(C(=O)N3CCN(c4ccccc4)CC3)CC2)cc1
→ -1.4, -3
COc1cc(C(=O)/C=C/Nc2cc(C)ccc2O)cc(OC)c1OC
→ ., 16
